Vaccinia Venus = vaccinia inhibition (Venus reporter); Potency, µM (top dose mostly 36.5 µM), inactives show at the highest dose activity change, negative = inhibition, usual class: inhibitors; Vaccinia virus Venus reporter expression, fluorescence; actives 0.46% (n = 330,000); active means well fitted inhibition curve with a large enough effect; inconclusive means small, poorly fitted or top-dose-only effect; inactive means no such curve, though single readings can be large or run the other way; tested in A549 cells; also: nearly all actives have a fitted effect of over 30% in size; inactives centre near -10
VACV mCherry inh = inhibitors of vaccinia virus infection (mCherry reporter signal) | Vaccinia virus mCherry reporter infection, fluorescence; about a quarter of the inactives have no number | Potency, µM (titrated, usually from 36.5 µM), for the others: at the top dose activity change, negative = inhibition, usual class: inhibitors | actives 0.63% (n = 310,000) | AID 720579; active = well fitted inhibition curve with a large enough effect; inconclusive = small, poorly fitted or top-dose-only effect; inactive = no such curve, though single readings can be large or run the other way; tested in A549 cells; also: nearly all actives have a fitted effect of over 35% in size; inactives centre near -10
An asterisk follows results filed as active; i = inactive; ? = inconclusive; . = no result given; & = joins results of further samples; [ ] = remark or other dose. % is scaled to controls: 0 for no effect and ±100 for the full control effect; potency is read from the fitted curve at half-maximal effect. Not a hit list; 0.88% or so of the library scored in one or more.

compound	Vaccinia Venus	VACV mCherry inh
CCC/C=C1/CCCOC(C(=O)NCc2cc(C)n(C)n2)(C(F)(F)F)C1 (configuration not stated)	0%	-3%
COC1C(OC(=O)/C=C/C=C/C=C/C=C/C(=O)O)CCC2(CO2)C1C1(C)OC1CC=C(C)C (configuration not stated) (tested in a mixture with another compound)	-17%	-14%
CCNc1ncnc2[nH]ncc12	6%	i
O=C(O)c1cccc(S(=O)(=O)N2CCN(C(c3ccccc3)c3ccccc3)CC2)c1	-7%	i
CCc1c(Cl)nc(N)nc1Nc1ccccc1Cl	-28%	-24%
Nc1ccc2sc(N)nc2c1	1%	i
Cc1ccc(/C=C/C(=O)NC2=NCCS2)cc1	-21%	-1%
COc1ccccc1CN=c1c([N+](=O)[O-])nn(-c2ccc3c(c2)OCCO3)n1O	-25%	i
Cc1cc(C(=O)NCC(=O)OCC(=O)N2CCCCCC2)ccc1[N+](=O)[O-]	-9%	-7%
CN(C)CCNc1nccc(N2CCN(C)CC2)n1	-14%	-5%
O=C(CSc1nnc(-c2ccc(O)cc2)n1Cc1ccco1)c1ccccc1	-18%	.
CC(=O)Nc1ccc(Sc2ccccc2C(=O)O)c(C(=O)O)c1	-4%	-2%
CN(C)S(=O)(=O)c1cc(NC(=O)CN2CCN(c3ccccc3O)CC2)ccc1Cl	-6%	-25%
CC(Oc1ccccc1)C(=O)OCC(=O)Nc1ccc2c(c1)OCO2 (configuration not stated)	-6%	-7%
CCOc1ccc(CCNC(=O)CCc2c(C)nc3cc(-c4ccccc4OC)nn3c2C)cc1	-7%[7.34 µM]	-5%[7.34 µM]
CN(Cc1ccc(C(F)(F)F)cc1)C(=O)c1ccc2ccccc2n1	-17%	-9%
CSc1ncccc1C(=O)N1CCC1(C)C(=O)NC(C)C (configuration not stated)	-2%	3%
O=C(CCCC(=O)NCc1ccccc1)NCc1ccccc1	-6%	i
COc1cc(CNc2ccc3[nH]c(=O)[nH]c3c2)cc(Cl)c1OCc1ccc(F)cc1	-8%	-28%
Cc1sc2nc(SCC(=O)NCc3ccco3)n(C)c(=O)c2c1C	-15%	.
Nc1nc2c(c(=O)[nH]1)CN(Cc1ccccc1)CC2	-15%	-1%
COc1ccc(NC(=O)c2c(SC)nsc2SC)cc1	?	.
O=C1Cc2ccccc2C(=O)N1Nc1ccccc1	-2%	-10%
Cc1ccc(Cl)cc1NC(=O)CCc1c(C)nc2c3cccnc3nn2c1C	-4%	-11%
CCOc1ccc(Oc2ccc(S(=O)(=O)N3CCOCC3)cc2NC(=O)CCNC(C)=O)cc1	-13%	-1%
COc1ccc(C(=O)OC(C)CN2CCN(C)CC2)cc1OC (configuration not stated)	-2%	.
CCN(CC)C(=O)Cn1cc(C(=O)C(=O)NCCc2ccccc2)c2ccccc21	-11%	-3%
COc1ccc(NC(=O)N2CCCC2C(=O)Nc2ccc(C)cc2)cc1 (configuration not stated)	-10%	i
O=C(NCCN1C(=O)S/C(=C\c2cccnc2)C1=O)c1ccc([N+](=O)[O-])s1	-10%	-23%
Cc1ccc(/C=N/NC(=O)c2nnn(-c3nonc3N)c2CSc2ccccc2)o1	-7%	?
Cc1cc(C)c(NS(=O)(=O)c2ccc(-c3cnc(C4CC4)o3)cc2)c(C)c1	-30%	-29%
CCOC(=O)CCNC(=O)N1CCN(S(=O)(=O)c2ccc3c(ccn3C)c2)CC1	-14%	-20%
COc1cc([N+](=O)[O-])ccc1NC(=O)NNC(=O)C(C)Oc1ccc(F)cc1F (configuration not stated)	-5%	-11%
CC[N+](CC)(CC)CC	-15%	i
c1ccc(-c2nnc(CSc3ccc4c(c3)OCCO4)o2)cc1	-15%	-11%
CCOc1cc(C)c(Cl)cc1S(=O)(=O)n1ccnc1	-15%	i
COc1ccc(CN(C)C[C@@H]2OCc3cnnn3CCCC(=O)N([C@@H](C)CO)C[C@H]2C)cc1	-10%	i
CC(C)NC(=O)Nc1ccc2c(c1)C(=O)N([C@H](C)CO)C[C@H](C)[C@@H](CN(C)C(=O)Nc1ccc3c(c1)OCO3)O2	0%	-6%
CCOC(=O)N1CCN(S(=O)(=O)c2cc(Cl)ccc2Cl)CC1	-6%	.
O=C(CNC(=O)c1cccs1)NCC(=O)OCC(=O)c1ccccc1	-12%	i
Cc1cc(=O)n(CC(=O)NC(C)c2ccccc2)c2c1c(C)nn2C (configuration not stated)	-14%	-17%
CCn1c(SCC(=O)Nc2sc(C)c(C)c2C#N)nnc1C1CC1	-1%[7.34 µM]	-11%[7.34 µM]
Cn1c(-c2ccc3ccccc3n2)nc2cnccc21	-20%	.
O=C(CCn1c(=O)c2cccn2c2cccnc21)NCCCN1CCN(c2ccc(F)cc2)CC1	-16%	-7%
COc1cccc(NC(=O)Nc2cc(C)ccc2OC)c1	-26%	-6%
COc1ccc(Br)cc1/C=N/Nc1ccc(S(=O)(=O)Nc2ccccc2C(=O)O)cc1[N+](=O)[O-]	1%	i
CCOC(=O)N1CCN(C(=O)C(=O)Nc2ccc3nc4n(c(=O)c3c2)CCCCC4)CC1	-17%	-12%
CC(=O)c1ccc(S(=O)(=O)NC2CCCCCCC2)cc1	-15%	-22%
COC(=O)C(C(=O)OC)C(C)C(C(=O)OC)C(=O)OC	2%	.
CCN(Cc1ccccc1)C(=O)CCS(=O)(=O)c1cc2c(cc1Cl)NC(=O)CO2	-16%&7%	-12%
COC(=O)c1nn(-c2ccccc2)ccc1=O	?	.
Cn1nc(SCc2ccccc2)c(=O)n(C(c2ccccc2)c2ccccc2)c1=O	-6%	i
O=C(Nc1ccc(F)cc1)Nc1nnc([C@H]2C[C@H](O)[C@@H](CO)O2)s1	-4%	31%
CCOC(=O)C1CCN(C(=O)c2ccccc2NC(=O)c2nsc3ccccc23)CC1	-10%	-3%
Cn1c(O)c(C=NC2C(=O)C3(C)CCC2C3(C)C)c(=O)n(C)c1=O (configuration not stated)	-13%	.
O=C(NCCCCc1ccccc1)c1nn(-c2ccccc2)nc1CO	-4%	-1%
O=C(Nc1ncc2c(n1)CC(c1ccco1)CC2=O)c1ccc(Cl)cc1 (configuration not stated)	-12%	-16%
O=C(Cn1c(-c2cncs2)nc2ccccc21)NCc1ccccc1	-20%	.
Nc1nc(NCc2ccc(Cl)cc2)c2[nH]cnc2n1	-12%	-13%
CCSc1nnc(NC(=O)c2cc(OC)c(OC)c(OC)c2)s1	-6%	i

Gathered by group: those above with two or more sulfur atoms
compound	Vaccinia Venus	VACV mCherry inh
Cc1sc2nc(SCC(=O)NCc3ccco3)n(C)c(=O)c2c1C	-15%	.
COc1ccc(NC(=O)c2c(SC)nsc2SC)cc1	?	.
O=C(NCCN1C(=O)S/C(=C\c2cccnc2)C1=O)c1ccc([N+](=O)[O-])s1	-10%	-23%
CCn1c(SCC(=O)Nc2sc(C)c(C)c2C#N)nnc1C1CC1	-1%[7.34 µM]	-11%[7.34 µM]
CCSc1nnc(NC(=O)c2cc(OC)c(OC)c(OC)c2)s1	-6%	i

Continued:
compound	Vaccinia Venus	VACV mCherry inh
CSc1ccc(CCNC(=O)CCc2c(C)nc3c(c(C)nn3-c3ccc(C)c(C)c3)c2C)cc1	-9%	-8%
CNS(=O)(=O)c1cn(CC(=O)N2CCN(c3ccc(C(C)=O)cc3)CC2)cc1S(=O)(=O)NC	-12%	-2%
CCCc1nc(SCC(=O)Nc2nc3c(s2)CCCC3)c2ccccc2n1	-9%	-17%
O=C(Cn1c(=O)c2cccn2c2ccccc21)NCc1cccc(F)c1	-11%	i
Cc1ccc(CNC(=O)CN(C)S(=O)(=O)c2ccc3c(c2)c(=O)n(C)c(=O)n3C)cc1	-10%	-11%
C#CCOCCOCCOCCNc1nc(N2CCN(C(=O)C([C@@H](C)CC)n3cc(C(N)CC(C)C)nn3)CC2)nc(N2CCN(C(=O)[C@H](CCC(=O)O)n3cc(C(N)Cc4ccc(O)cc4)nn3)CC2)n1 (some centres not stated)	-8%	i
CSCCC(NC(=O)COc1ccccc1)C(=O)N1CCN(c2ccccc2)CC1 (configuration not stated)	-3%	-3%
Cc1nn(-c2ccccc2)c(C)c1NC(=O)COc1ccccc1C#N	-6%	-5%
Fc1cccc(NCc2ccccc2-c2nnc(-c3ccccc3Cl)o2)c1	-6%	-18%
C[C@]12CC[C@@H](O)CC1=CCC1C2CC[C@@]2(C)C1C[C@@H](F)[C@@H]2O (some centres not stated)	-11%	-11%
CCN(C(=O)COC(=O)CCc1ccc(OC)cc1)c1c(N)n(Cc2ccccc2)c(=O)[nH]c1=O	-19%	-10%
CCSc1nc2[nH]ncc2c(=O)[nH]1	0%	i
S=c1nc2c(n[nH]1)c1ccccc1n2CCc1ccccc1	?	?
O=C(OCc1nnc(-c2ccc(Cl)cc2)o1)c1ccc(=O)n(Cc2ccccc2)n1	-5%	-16%[1.46 µM]
Cc1ccc(NC(=O)Cn2nc(C(=O)O)c3ccccc3c2=O)cc1S(=O)(=O)N1CCCCC1	-10%	-21%
Cn1c(=O)c2[nH]c(CN(Cc3ccccc3)Cc3ccccc3)nc2n(C)c1=O	-11%	?
O=c1cc(-c2ccccc2)nc(N2CCN(Cc3ccccc3)CC2)[nH]1	-10%	.
CN(C)c1ccc(-n2cccc2/C=N/n2cnnc2)cc1	-5%	-12%
O=C(NCCCn1ccnc1)C(=O)NCC1OCCCN1S(=O)(=O)c1ccccc1 (configuration not stated)	-3%	0%
CCOC(=O)c1cccc(NC(=O)CSc2nnc(C)n2CC2CCCO2)c1 (configuration not stated)	-11%	-10%
Cc1ccccc1CNC(=O)c1ccc2sc([C@H]3C[C@H](O)[C@@H](CO)O3)nc2c1	-2%	6%
c1ccc(C2=NCCCN2)cc1	2%	-4%
O=C(CCN1C(=O)c2ccncc2C1=O)Nc1ccc2c(c1)OCCO2	-18%	-21%
C#CCOCCOCCOCCNc1nc(N2CCN(C(=O)[C@H](Cc3cc4ccccc4[nH]3)n3cc([C@@H](N)CC(C)C)nn3)CC2)nc(N2CCN(C(=O)[C@H](Cc3cc4ccccc4[nH]3)n3cc([C@@H](N)CC(C)C)nn3)CC2)n1	-2%	21%
CCCn1c(=O)c(-c2nc3ccccc3[nH]2)c(O)c2ccccc21	-11%	?
Cc1cccc(NC(=O)c2cc(N3C(=O)CCC3=O)ccc2Cl)n1	-4%	-12%
Cc1ccnc2nc(C(=O)OCCOc3ccc(F)cc3)nn12	0%	8%
CSc1ccc(CCNC(=O)c2ccc3c(c2)nc2n3CCCCC2)cc1	-7%	-2%
COc1ccc(NC(=O)NC23CC4CC(CC(C4)C2)C3)cc1OC	-21%	.
NC(=O)c1ccc(F)cc1	-5%	-8%
CN(C[C@H](Cc1ccccc1)N(C[C@@H](Cc1cccc2ccccc12)N(CCc1ccccc1)N=O)N=O)N=O	-10%	i
O=S(=O)(/N=C(\[O-])C[n+]1ccccc1)c1ccc(Cl)cc1	-4%	-1%
COc1ccc(CCNC(=O)c2c(C)oc3ncn(C)c(=O)c23)c(OC)c1	-14%	-19%
CCN(C(=O)CCS(=O)(=O)c1cc2c(cc1Cl)NC(=O)CO2)c1ccccc1	-5%	-5%
COc1cccc(C2(CC(=O)N3CCCCC3CO)CC(=O)N(C)C2=O)c1 (configuration not stated)	7%	-7%
CNc1oc(/C=C/c2ccccc2)nc1C#N	-23%	-4%
COCCCn1c(C)nnc1SCc1ccc(C(C)(C)C)cc1	-1%	-9%
Cc1ccc(S(=O)(=O)Nc2ccccc2C(O)c2ccccc2)cc1 (configuration not stated)	-17%	i
O=C(NCC1CCCO1)c1cccc(Oc2ccc([N+](=O)[O-])cc2)c1 (configuration not stated)	-22%	-11%
Cc1nn2c(nc(N3CCCCC3)c3ccccc32)c1C=O	-11%	-1%
COC(=O)C1=C(C(=O)OC)[C@]2([C@@H]3CC=CCN[C@@H](Cc4ccccc4)C(=O)N3Cc3ccccc3)C=C[C@H]1O2	-3%	0%
Cc1cccc(C)c1-n1ncc(C(=O)NCCN2CCN(C)CC2)c1C1CCN(C(=O)OC(C)(C)C)CC1	-12%	18%
CCC1CCCCN1c1cc(C)nc2cc(-c3cccc(C)c3)nn12 (configuration not stated)	10%	2%
CCOc1c2ccc(C(=O)NCc3ccc(OC)cc3)cc2nn1CCOC	-12%	i
OC[C@@H]1[C@@H](c2ccc(Cl)cc2)C(c2ccccc2)=NN1c1ccccc1	-26%	-23%
CCOC(=O)c1c(C)[nH]c(C)c1C(=O)COC(=O)c1ccc(Cl)nc1	-27%	-19%

An excerpt from above in order of length of the SMILES, ascending.
compound	Vaccinia Venus	VACV mCherry inh
Cc1nn2c(nc(N3CCCCC3)c3ccccc32)c1C=O	-11%	-1%
CCOc1c2ccc(C(=O)NCc3ccc(OC)cc3)cc2nn1CCOC	-12%	i
CCOC(=O)c1c(C)[nH]c(C)c1C(=O)COC(=O)c1ccc(Cl)nc1	-27%	-19%
COC(=O)C1=C(C(=O)OC)[C@]2([C@@H]3CC=CCN[C@@H](Cc4ccccc4)C(=O)N3Cc3ccccc3)C=C[C@H]1O2	-3%	0%

Assay outcomes deposited in PubChem BioAssay by National Center for Advancing Translational Sciences (NCATS).
